Screening results from PubChem BioAssay.
FGF22 binding – binders of human FGF22 protein, primary screen, FGF22 synaptogenesis inhibitor project, biophysical, thermal shift, single point | Fibroblast growth factor 22 (Homo sapiens), Q9HCT0 | recombinant FGF22 thermal shift, SYPRO orange fluorescence; percent of sucrose octasulfate shift, DMSO zero | calls only at 9.99 µM | 1.5% of 340,000 active | AID 651658, 2012;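 active = melting point raised past a set limit in the mean and every replicate; three in four hits are not shown here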
Target sequence (Q9HCT0 whole entry, looked up): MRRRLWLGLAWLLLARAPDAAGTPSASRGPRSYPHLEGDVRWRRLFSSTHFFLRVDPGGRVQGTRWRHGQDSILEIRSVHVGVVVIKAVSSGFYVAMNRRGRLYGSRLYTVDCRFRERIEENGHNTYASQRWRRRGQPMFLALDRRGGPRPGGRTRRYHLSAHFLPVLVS
rRNA inh HTS – reduced GFP signal of wild-type E. coli, primary screen, bacterial rRNA inhibitor project, GFP/RFP fluorescence, OD600, single point. E. coli WT GFP vs humanized-ribosome RFP mutants, 24 h; stronger effect = lower value; DMSO median 0, no signal -100. GFP signal change (wild-type ribosome), % (concentration not given with the values). 1.6% of 350,000 active;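 active = significant combined selectivity score with lowered wild-type GFP, culture density cut under 30%, mutant RFP and density less affected; inactive = any of these conditions unmet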; also: one replicate is shown; some compounds called inactive have numbers as strong as hits
AF4-AF9 inh – inhibitors of AF4 peptide binding to AF9, primary screen, biochemical, AlphaScreen, biotin-AF4 peptide, FLAG-AF9, single point | 0.47% of 350,000 active | inhibition, % at 10 µM | Protein AF-9 (Homo sapiens), P42568 | AID 651704, 2012;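 active = every replicate reaching a set inhibition limit, whatever the replicate mean, cut at about 25% in these data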;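 also: 0% = plate neutral control median and 100% = total signal loss; the record names both 10 and 1 µM as test concentration; the first replicate is given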
Target sequence (P42568 whole entry, looked up): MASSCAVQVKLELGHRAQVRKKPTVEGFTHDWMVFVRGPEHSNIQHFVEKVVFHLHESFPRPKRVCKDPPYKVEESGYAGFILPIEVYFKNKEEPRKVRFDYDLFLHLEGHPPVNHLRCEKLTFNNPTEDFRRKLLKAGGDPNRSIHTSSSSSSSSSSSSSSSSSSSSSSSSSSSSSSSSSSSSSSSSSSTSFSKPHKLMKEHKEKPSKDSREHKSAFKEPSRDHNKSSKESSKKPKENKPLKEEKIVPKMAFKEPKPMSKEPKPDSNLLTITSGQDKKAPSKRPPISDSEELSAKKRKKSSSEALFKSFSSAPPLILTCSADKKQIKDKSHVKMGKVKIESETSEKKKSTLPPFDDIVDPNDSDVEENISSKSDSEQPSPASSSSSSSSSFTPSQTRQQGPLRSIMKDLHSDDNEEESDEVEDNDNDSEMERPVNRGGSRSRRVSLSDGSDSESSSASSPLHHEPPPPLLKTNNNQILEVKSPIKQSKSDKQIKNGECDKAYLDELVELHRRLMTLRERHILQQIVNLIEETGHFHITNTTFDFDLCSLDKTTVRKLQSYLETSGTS
rRNA inh HTS OD600 – second read-out of rRNA inh HTS, no call of its own (marks repeat the call); OD600 change, %; measured here: OD600 growth;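 optical density of the mix in the first replicate; 0 = DMSO median and -100 = no signal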
rRNA inh HTS RFP – further read-out of rRNA inh HTS, marked with its call; RFP signal change, %; measured here: RFP humanized mutant strains;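 first replicate; 0 = DMSO median and -100 = no signal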
Numbers without * were called inactive; i = inactive; & = joins results of further samples. Not all compounds are listed; rates above refer to the full screens.

nr | Compound | FGF22 binding | rRNA inh HTS | rRNA inh HTS OD600 | rRNA inh HTS RFP | AF4-AF9 inh
1 | COCC(=O)N[C@@H]1CC[C@@H](CC(=O)N2CCCCC2)O[C@H]1CO | i | 1.9 | 6.0 | -1.9 | -2.4
2 | O=C(O)C[C@@H]1CC[C@H]2[C@@H](COC[C@@H](O)CN2S(=O)(=O)c2ccc(F)cc2)O1 | i | -4.5 | -14.6 | -5.0 | -1.7
3 | COC(=O)C[C@@H]1C=C[C@@H](NC(=O)c2ccccc2)[C@@H](CO)O1 | i | 0.8 | -7.3 | 0.0 | -1.1
4 | CO[C@@H]1CN(C)C(=O)c2cc(NS(C)(=O)=O)ccc2OC[C@H](C)N(Cc2cncnc2)C[C@H]1C | i | 2.0 | 4.5 | -0.2 | -2.1
5 | Cc1ccccc1-c1ccc([C@H]2[C@@H](CO)N3CCCCN(C(=O)c4cccnc4)C[C@@H]23)cc1 | i | 1.4 | -0.7 | 5.8 | 0.1
6 | CCCCN1C(=O)C(CC(=O)NCCN2CCOCC2)CC(C(=O)N2CCOCC2)=C1C (centres undefined) | i | 24.8 | 13.9 | 0.1 | -1.0
7 | CCN(c1ccccc1)S(=O)(=O)c1cccc(C(=O)NCC(c2ccco2)N2CCCCC2)c1 (centres undefined) | i | -6.7 | -28.2 | 1.3 | 5.3
8 | CO[C@@H]1CN(C)C(=O)c2ccc(NC(=O)c3cccnc3)cc2OC[C@@H](C)N(CC2CC2)C[C@H]1C | i | 0.9 | 4.0 | -2.2 | -3.1
9 | CC(C)C(C(=O)NC1CCCC1)N1CCN(c2ncccc2C#N)CC1 (centres undefined) | i | 11.2 | 8.2 | 3.6 | 1.9
10 | C[C@@H]1CN([C@H](C)CO)C(=O)Cc2cc(NC(=O)CCN3CCOCC3)ccc2O[C@H]1CN(C)C(=O)Nc1ccc(C(F)(F)F)cc1 | i | 3.8 | 2.4 | -0.8 | -0.3
11 | Cc1noc(C)c1S(=O)(=O)Nc1ccc2c(c1)C(=O)N([C@@H](C)CO)C[C@@H](C)[C@H](CN(C)C(=O)Nc1ccccc1)OCCCC[C@@H](C)O2 | i | -3.3 | -6.6 | -1.3 | 2.8
12 | CO[C@@H](CN(C)S(=O)(=O)c1ccc(C)cc1)[C@H](C)CN(Cc1ccccc1Cl)[C@H](C)CO | i | 3.4 | -7.1 | -1.9 | -0.7
13 | CN1C(=O)c2cc(NC(=O)C3CCC3)ccc2OC[C@@H]2O[C@@H](CC(=O)NCCc3ccncc3)CC[C@H]21 | i | 5.0 | 10.1 | -1.2 | 0.8
14 | O=C(OCc1ccccc1)N1CCC2CC1c1cc(N3CCN(S(=O)(=O)c4cccc(C(F)(F)F)c4)CC3)ccc12 (centres undefined) | i | 12.5 | 12.7 | 1.0 | 1.3
15 | CCCC1NC(=O)c2cccnc2-n2c1nc1ccc(OC)cc1c2=O (centres undefined) | i | -1.3 | 11.0 | -3.9 | -0.6
16 | CO[C@@H]1CN(C)C(=O)c2cc(NC(=O)C3CC3)ccc2OC[C@H](C)N(Cc2cncnc2)C[C@@H]1C | i | 1.9 | 3.6 | -2.7 | 0.6
17 | C[C@H]1CN([C@@H](C)CO)S(=O)(=O)c2ccc(-c3cccc(F)c3)cc2O[C@@H]1CN(C)S(=O)(=O)c1ccc(F)cc1 | i | -0.9 | 2.1 | 0.6 | -3.4
18 | COCC(=O)N1[C@H](CO)[C@@H](c2ccc(C3=CCCCC3)cc2)[C@@H]1C#N | i | 2.3 | 0.1 | 1.3 | 0.1
19 | C[C@H](NC(=O)C[C@@H]1CC[C@H]2[C@@H](COC[C@@H](O)CN2C(=O)Nc2ccccc2)O1)c1ccccc1 | i | 1.0 | 1.9 | -3.3 | -1.7
20 | Cc1cc(C)cc(-n2ncc3c2CCCC3NC(=O)c2ccccc2)c1 (centres undefined) | i | -5.2 | -26.5 | -6.2 | 3.4
21 | COc1cccc(NC(=O)N(C)C[C@@H]2Oc3cc(C#Cc4ccccc4)ccc3S(=O)(=O)N([C@H](C)CO)C[C@H]2C)c1 | i | 1.6 | 9.9 | -0.8 | 0.4
22 | O=C(N[C@@H]1CC[C@@H](CCNC(=O)C2CCC2)O[C@H]1CO)c1ccccn1 | i | -1.3 | 6.0 | -1.8 | -2.5
23 | O=C(NCc1ccccc1)C(c1ccc(F)cc1)N1CCN(c2ccccc2F)CC1 (centres undefined) | i | -33.5 | -36.0 | -7.8 | 0.4
24 | C[C@@H]1CN([C@@H](C)CO)C(=O)c2cc(NC(=O)c3ccncc3)ccc2O[C@@H](C)CCCCO[C@@H]1CN(C)S(=O)(=O)c1ccc(F)cc1 | i | -2.3 | 5.8 | 3.4 | -3.1
25 | C[C@@H]1CN([C@@H](C)CO)C(=O)Cc2cc(NC(=O)C3CCCCC3)ccc2O[C@@H]1CN(C)S(=O)(=O)c1cccs1 | i | -2.7 | -4.3 | 0.2 | -0.1

Exported screen by screen: 2 of the compounds above
10	C[C@@H]1CN([C@H](C)CO)C(=O)Cc2cc(NC(=O)CCN3CCOCC3)ccc2O[C@H]1CN(C)C(=O)Nc1ccc(C(F)(F)F)cc1
6	CCCCN1C(=O)C(CC(=O)NCCN2CCOCC2)CC(C(=O)N2CCOCC2)=C1C (centres undefined)

entry no.,10,6
FGF22 binding,i,i
rRNA inh HTS,3.8,24.8
rRNA inh HTS OD600,2.4,13.9
rRNA inh HTS RFP,-0.8,0.1
AF4-AF9 inh,-0.3,-1.0

Back to the main list with the four entries that preceded the break.
nr | Compound | FGF22 binding | rRNA inh HTS | rRNA inh HTS OD600 | rRNA inh HTS RFP | AF4-AF9 inh
22 | O=C(N[C@@H]1CC[C@@H](CCNC(=O)C2CCC2)O[C@H]1CO)c1ccccn1 | i | -1.3 | 6.0 | -1.8 | -2.5
23 | O=C(NCc1ccccc1)C(c1ccc(F)cc1)N1CCN(c2ccccc2F)CC1 (centres undefined) | i | -33.5 | -36.0 | -7.8 | 0.4
24 | C[C@@H]1CN([C@@H](C)CO)C(=O)c2cc(NC(=O)c3ccncc3)ccc2O[C@@H](C)CCCCO[C@@H]1CN(C)S(=O)(=O)c1ccc(F)cc1 | i | -2.3 | 5.8 | 3.4 | -3.1
25 | C[C@@H]1CN([C@@H](C)CO)C(=O)Cc2cc(NC(=O)C3CCCCC3)ccc2O[C@@H]1CN(C)S(=O)(=O)c1cccs1 | i | -2.7 | -4.3 | 0.2 | -0.1
26 | COc1cc(-c2cc(NC=O)c3ncc(-c4cccc(C(F)(F)F)c4)n3c2)cc(OC)c1OC | i | 2.1 | 9.8 | 10.7 | -0.3
27 | C[C@H]1CN([C@@H](C)CO)C(=O)c2cc(C#Cc3ccccn3)cnc2O[C@@H]1CN(C)C(=O)c1cnccn1 | i | 1.5 | 9.0 | -0.9 | -5.5
28 | C[C@H]1CN([C@@H](C)CO)C(=O)Cc2cc(NC(=O)C3CC3)ccc2O[C@H]1CN(C)Cc1ccccc1 | i | 1.9 | -0.2 | -0.6 | 0.9
29 | CO[C@H]1CN(C)C(=O)c2ccc(NC(=O)c3cc(C)on3)cc2OC[C@@H](C)N(C)C[C@@H]1C | i | -1.4 | 0.8 | 0.7 | -3.3
30 | COc1ccc(CN(C)CCCn2cnc3c(OCc4ccccc4)ncnc32)cc1OC | i | 8.3 | 3.0 | 3.0 | -2.0
31 | COc1ccc(S(=O)(=O)N(C)C[C@@H]2Oc3ccc(NC(=O)C4CCCCC4)cc3CC(=O)N([C@@H](C)CO)C[C@@H]2C)cc1 | i | -1.3 | 19.1 | -1.1 | -0.3
32 | Cc1noc(C)c1S(=O)(=O)Nc1ccc2c(c1)C(=O)N([C@@H](C)CO)C[C@H](C)[C@@H](CN(C)Cc1ccc(C(F)(F)F)cc1)OCCCC[C@H](C)O2 | i | 0.7&-4.6 | -4.8&-10.6 | -0.5&0.5 | 2.8&1.0
33 | C[C@H](CO)N1C[C@H](C)[C@@H](CN(C)CC2CCCCC2)OCCCC[C@H](C)Oc2ccc(NC(=O)CCCCCC(=O)Nc3ccccc3N)cc2C1=O | i | 2.5 | 0.7 | -1.9 | 0.0
34 | O=C(C[C@H]1C=C[C@H](NC(=O)c2ccccn2)[C@H](CO)O1)NCc1cccc(F)c1 | i | -0.3 | -2.6 | -1.5 | -1.0
35 | Cc1noc(C)c1S(=O)(=O)Nc1cccc2c1O[C@@H](CN(C)S(=O)(=O)c1cn(C)cn1)[C@@H](C)CN([C@H](C)CO)C2=O | i | 1.5 | 11.4 | 0.9 | -2.4
36 | CC1(c2nc3ccccc3[nH]2)CCC(=O)N1C1CC1 (centres undefined) | i | 7.1 | 14.9 | -4.1 | -2.7
37 | COCC(=O)N[C@H]1C=C[C@H](CC(=O)NCc2ccc(Cl)cc2)O[C@@H]1CO | i | 1.0 | 9.3 | -1.3 | -1.2
38 | O=C(NCC[C@H]1CC[C@H](NC(=O)C2CCCCC2)[C@@H](CO)O1)c1cnccn1 | i | 1.2 | -4.3 | -1.7 | -1.7
39 | Cc1ccc(-c2ccc3c(c2)O[C@H](CN(C)Cc2ccccn2)[C@H](C)CN([C@@H](C)CO)S3(=O)=O)cc1 | i | -32.8 | -49.8 | 23.5 | 9.9
40 | CC(C)NC(=O)Nc1ccc2c(c1)C(=O)N([C@H](C)CO)C[C@H](C)[C@@H](CN(C)S(=O)(=O)c1ccc(Cl)cc1)OCCCC[C@@H](C)O2 | i | -0.5 | -8.8 | 0.3 | -1.1
41 | C[C@H]1CCCCO[C@@H](CN(C)S(=O)(=O)c2cccs2)[C@@H](C)CN([C@@H](C)CO)C(=O)c2cc(NS(=O)(=O)c3ccc(Cl)cc3)ccc2O1 | i | 1.5 | 3.8 | 2.1 | -1.9
42 | O=C(C[C@@H]1CC[C@H]2[C@@H](COC[C@H](O)CN2Cc2cccc(C(F)(F)F)c2)O1)NCc1ccncc1 | i | -6.1 | -3.1 | 1.2 | -0.1
43 | C[C@@H]1CN([C@H](C)CO)C(=O)Cc2cc(NC(=O)Nc3ccccc3)ccc2O[C@H]1CN(C)C(=O)Nc1ccc2c(c1)OCO2 | i | 1.0 | 1.8 | -2.4 | 0.4
44 | C[C@H]1CN([C@@H](C)CO)C(=O)c2cc(-c3cccc(C#N)c3)cnc2O[C@@H]1CN(C)Cc1cncnc1 | i | 3.1 | 6.3 | -5.2 | -1.8
45 | CCCNC(=O)N1[C@H](CO)[C@@H]2c3ccccc3N(C(=O)C3CCC3)C[C@@H]21 | i | 2.3 | 12.1 | -3.7 | -0.4
46 | CO[C@H]1CN(C)C(=O)c2cc(NC(C)=O)ccc2OC[C@@H](C)N(C(=O)CC2CC2)C[C@@H]1C | i | 1.6 | 3.9 | -1.9 | -1.8
47 | Cc1noc(C)c1S(=O)(=O)Nc1ccc2c(c1)C(=O)N([C@H](C)CO)C[C@@H](C)[C@H](CN(C)Cc1ccc(Cl)c(Cl)c1)OCCCC[C@@H](C)O2 | i | -2.3 | -12.7 | 4.2 | 2.7
48 | O=C(CC1CC1)Nc1ccc2c(c1)[C@@H]1C[C@H](CC(=O)N3CCCCC3)O[C@H](CO)[C@@H]1O2 | i | 2.7 | -6.0 | -3.3 | 1.3
49 | CC(C)(C)NC(=O)C(c1cccc2ccccc12)n1c(=O)c(-c2cc3ccccc3[nH]2)nc2ccccc21 (centres undefined) | i | 29.4 | 23.8 | -2.4 | -27.7
50 | C[C@@H]1CCCCO[C@@H](CN(C)S(=O)(=O)c2ccccc2)[C@@H](C)CN([C@H](C)CO)C(=O)c2cc(NC(=O)Nc3ccccc3)ccc2O1 | i | 3.8 | 8.0 | -1.3 | 1.3
51 | O=C(Cc1ccccc1)N[C@@H]1C=C[C@H](CC(=O)N2CCOCC2)O[C@@H]1CO | i | -0.1 | 1.9 | -1.2 | 2.8
52 | C[C@@H]1CN([C@@H](C)CO)C(=O)c2cc(C3=CCCCC3)cnc2O[C@H]1CN(C)C(=O)Nc1ccccc1 | i | -4.3 | 0.5 | -0.2 | 1.7
53 | C[C@@H]1CN([C@H](C)CO)C(=O)c2c(c3ccccc3n2C)-c2ccccc2CO[C@H]1CN(C)Cc1ccc(Oc2ccccc2)cc1 | i | 7.7&8.1 | 9.6&5.8 | 0.2&-3.8 | 1.7&-1.1
54 | COCC#Cc1cnc2c(c1)C(=O)N([C@@H](C)CO)C[C@H](C)[C@H](CN(C)C(=O)Nc1c(C)noc1C)O2 | i | 1.8 | 15.8 | -0.1 | -8.8
55 | CC(C)CC#Cc1ccc2c(c1)O[C@H](CN(C)S(=O)(=O)c1ccc(F)cc1)[C@@H](C)CN([C@H](C)CO)S2(=O)=O | i | 2.0 | 6.0 | -0.1 | 1.1
56 | Cc1noc(C)c1NC(=O)Nc1ccc2c(c1)C(=O)N([C@@H](C)CO)C[C@H](C)[C@@H](CN(C)Cc1ccc(-c3ccccc3)cc1)O2 | i | 1.2 | -13.6 | 4.7 | 9.1
57 | CN(C)C1CN(Cc2cn(Cc3ccc(Cl)cc3)nn2)S(=O)(=O)C1 (centres undefined) | i | 6.8 | 10.8 | -5.4 | -0.1
58 | NC(Cc1ccc(Cl)cc1)c1csc(NC(=O)Nc2ccccc2)n1 (centres undefined) | i | 6.8 | -14.2 | 19.9 | 7.1
59 | O=C(CCN1CCCCC1)NCC[C@H]1CC[C@H](NS(=O)(=O)c2cccc(F)c2)[C@H](CO)O1 | i | 2.3 | 6.3 | -1.1 | 0.1
